High-throughput results from PubChem.
CDC25B-CDK2 inh = human CDC25B-CDK2/CyclinA binding inhibition | HTRF CDC25B-CDK2/CyclinA binding, anti-His/anti-Flag; stronger effect = higher value | z-score (concentration not given with the values) | P30305+P24941 | 94,000 tested, 0.72% active | AID 1259370;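 further: score is relative to mean and SD of negative controls; strong numbers were not always called active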
TAR Tat displ = HIV-1 TAR-Tat binding disruption; HIV-1 TAR RNA, Tat peptide displacement FRET; stronger effect = higher value; AID 1259389; z-score (test concentration not listed); 100,000 tested, 0.6% active;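 further: score is relative to mean and SD of negative controls; some compounds called inactive have numbers as strong as hits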
Starred values were filed as active, the others as inactive; nt = not tested or not shown.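 How the source made its calls: active means z-score from 3 up in half or more of its runs; inactive means the rest.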

Below each SMILES: CDC25B-CDK2 inh | TAR Tat displ
Cc1ccc(OCC(=O)OCc2cc(=O)n3nc(-c4cccs4)sc3n2)cc1
  nt | -2
Cn1nnnc1SCCNCC#Cc1ccccc1
  1.5 | 0.97
O=C(Nc1nnc(CSCCOc2ccccc2)s1)C(=O)c1c[nH]c2ccccc12
  -2 | -0.93
Nc1ccc(Oc2cc(N)cc(Oc3ccccc3)c2)cc1
  -1.5 | 1.2
Cc1ncc(-c2ccc(C)c(S(=O)(=O)Nc3ccc(C)c(Cl)c3)c2)o1
  nt | 0.53
O=C(Oc1ccc2c(=O)c(-c3ccccc3Cl)coc2c1)c1cccs1
  -1.1 | 1
CSc1ccc(CCNc2ncnc3onc(C)c23)cc1
  nt | 0.37
Cc1ccc(C(=O)O)cc1-n1c(C)nc2cccnc21
  1.3 | 0.52
O=[N+]([O-])c1ccccc1-c1nnc(-c2ccc(Cl)c(Cl)c2)o1
  -1.6 | nt
CN(C)CCN1C(=O)C(O)=C(C(=O)c2ccco2)C1c1ccccc1F (stereo not drawn)
  -0.82 | 0.82
Cc1cccnc1NC(=O)CCc1nnc2ccc(N3CCCC3)nn12
  nt | 0.25
Cc1ccc(-c2n[nH]n3c2nc(=O)c2ccccc23)cc1
  1.1 | 2.7
Nc1ccc2nc(SCC(=O)N3CCCCC3)sc2c1
  -2.9 | -1.2
Oc1ccc(C2N(Cc3ccccc3)CCN2Cc2ccccc2)cc1
  1.4 | 0.76
CC(c1nnc(SCC(=O)Nc2ccc3c(c2)OCCO3)n1C)N1C(=O)COc2ccccc21 (stereo not drawn)
  nt | -1.6
O=S(=O)(c1ccc(-c2cc(C(F)(F)F)on2)s1)N1CCN(c2ccccn2)CC1
  nt | 1.5
CCc1ccc(C2OC3(C(=O)c4ccccc4C3=O)C3C(=O)N(c4cccc(F)c4)C(=O)C23)cc1 (stereo not drawn)
  0.55 | 0.72
O=C(Nc1ccc(F)cc1)c1cn2c3c(ccc(Cl)c3c1=O)OCC2
  nt | 1.7
O=C(CCc1nc(CSc2nc3ccccc3s2)no1)Nc1cc(F)cc(F)c1
  nt | -0.31
CCCCc1nn2c(=O)cc(CN(C)c3ccccc3)nc2s1
  nt | -0.91

Arranged by formula weight (lowest first): some entries from above.
Below each SMILES: CDC25B-CDK2 inh | TAR Tat displ
Cn1nnnc1SCCNCC#Cc1ccccc1
  1.5 | 0.97
Oc1ccc(C2N(Cc3ccccc3)CCN2Cc2ccccc2)cc1
  1.4 | 0.76
CN(C)CCN1C(=O)C(O)=C(C(=O)c2ccco2)C1c1ccccc1F (stereo not drawn)
  -0.82 | 0.82
O=C(Nc1ccc(F)cc1)c1cn2c3c(ccc(Cl)c3c1=O)OCC2
  nt | 1.7
O=C(Oc1ccc2c(=O)c(-c3ccccc3Cl)coc2c1)c1cccs1
  -1.1 | 1
CC(c1nnc(SCC(=O)Nc2ccc3c(c2)OCCO3)n1C)N1C(=O)COc2ccccc21 (stereo not drawn)
  nt | -1.6

New compounds follow:
Below each SMILES: CDC25B-CDK2 inh | TAR Tat displ
CCOC(=O)C1CCCN(C(=O)c2sc3ncn(CC(=O)N4CCCCC4C)c(=O)c3c2C)C1 (stereo not drawn)
  -1.9 | 2
CCOc1ccccc1-n1nnc(-c2nc(-c3ccccc3Cl)no2)c1N
  nt | -0.3
CC1CCN(S(=O)(=O)c2ccc3c(c2)c(=O)c(C(=O)NC2CCCCCC2)cn3C)CC1
  -1.6 | nt
COc1ccc2cc3c(nc2c1)N(C(=O)COc1ccc(Cl)cc1)CC3
  -1.1 | -1.7
CC(C)c1ccc2c(c1)NC(c1ccncc1)=NC(c1cccs1)=N2
  1.3 | -0.39
CC1CN(S(=O)(=O)c2ccc3c(c2)n(C)c(=O)c(=O)n3C)c2ccccc2S1 (stereo not drawn)
  nt | -0.18
COC(=O)C/C(=N\NC(=O)c1cccs1)C(=O)OC
  -1.1 | nt
Cc1ncc(CO)c(CNc2ccccc2Br)c1O
  nt | 0.67
COC(=O)/C=C1/NCC(O)CNC1=O (stereo not drawn)
  -1.7 | nt
COc1ccc(-n2nnc(-c3nc(-c4ccc(Cl)cc4)no3)c2N)cc1OC
  nt | -0.07
C=C(C)CSc1nc2c(cc1C#N)CCC2
  0.47 | nt
COc1cc(NC2=NS(=O)(=O)C(c3cccc(Br)c3)=C2C)cc(OC)c1
  -0.61 | -2.5
O=C1OC(Nc2ccc3ncccc3c2)c2ccccc21 (stereo not drawn)
  -5.2 | nt
Cc1csc(-n2[nH]c(C)c(CCC(=O)Nc3ccc(Br)cc3)c2=O)n1
  -0.44 | -0.95
COc1cccc(CNCc2cccnc2)c1OCc1ccccc1
  0.3 | -2.4
COc1cc(Cl)c(NS(=O)(=O)c2cc(-c3cnc(C)o3)ccc2C)c(OC)c1
  nt | 1.8
O=C(CC1Oc2ccccc2NC1=O)NCc1ccco1 (stereo not drawn)
  -1.3 | nt
Cc1cc(C)cc(NC(=O)N2CCc3cc(S(=O)(=O)N4CCC(C)CC4)ccc32)c1
  -0.16 | 0.39
CC1CCCC(C)N1CCCNC(=O)Cn1ncc2c(=O)oc3ccccc3c21 (stereo not drawn)
  -0.15 | -0.26
O=C(NCc1csc(-c2ccccc2)n1)[C@H]1CSCN1S(=O)(=O)c1cccs1
  nt | 0.58
Cn1c(-c2ccccc2)n[nH]c1=S
  -1.4 | nt
CC1CCN(CCCCOc2ccc(Cl)cc2)CC1
  -0.9 | -0.18
CCN1CCN(c2ncc3c(n2)CCN(Cc2ccc(N(C)C)cc2)C3)CC1
  nt | 0.63
Cc1csc(NC(=O)Cc2c(Sc3cccc(F)c3)[nH]c3ccccc23)n1
  nt | 1.8
O=C(c1ccco1)N1CCN(C(=O)C2CC(c3ccc(F)cc3)=NO2)CC1 (stereo not drawn)
  1.1 | 0.85
CN1CCN(Cn2c(O)c(N=NC(=O)c3ccncc3)c3cc(Br)ccc32)CC1
  -0.38 | nt
COc1cc2c(=O)c(C(=O)c3ccc(F)cc3)cn(Cc3ccccc3F)c2cc1OC
  -2 | 0.95
Clc1ccccc1-c1nn2cnnc2s1
  -1 | 2.1
Cn1c(=O)c2c(nc(NCCOCCO)n2Cc2ccccc2Br)n(C)c1=O
  -1.2 | nt
CSc1nc(=O)c2c(n1C)NC(=O)CC2c1ccccc1OC(C)C (stereo not drawn)
  -1.3 | 0.86
OC(CNC1Cc2ccccc2C1)c1ccccc1 (stereo not drawn)
  -2.5 | nt
CCn1ccc2cc(S(=O)(=O)N3CCCN(C(=O)Nc4ccc5c(c4)OCO5)CC3)ccc21
  nt | 0.92
O=C(c1ccccc1)c1cccc([N+](=O)[O-])c1
  -1.1 | nt
CSc1nnc(SCc2nc3ccccc3[nH]2)s1
  -1.1 | nt
C/C(=N\N=C1/NC(=O)C(CC(=O)O)S1)c1csc2ccccc12 (stereo not drawn)
  -0.97 | nt
O=C1NC(c2ccccc2Cl)Nc2sc3c(c21)CCCC3 (stereo not drawn)
  1.6 | 0.97
COCCNS(=O)(=O)c1ccc(C)c(-c2nnc3c4ccccc4c(C)nn23)c1
  0.21 | 0.47
Cc1cc(C)n(-c2nc3c(c(=O)n2CC(=O)N2CCCc4ccccc42)CCC3)n1
  nt | 0.68
COc1cccc(-c2noc(NCCc3ccc(SC)cc3)n2)c1
  nt | -1.4
Cc1cc2c(c(C)c1Cl)CN(c1ccc3c(c1)OCCO3)CO2
  -1.9 | 0.12

Two records drawn at random from those above:
Below each SMILES: CDC25B-CDK2 inh | TAR Tat displ
Cc1cc(C)n(-c2nc3c(c(=O)n2CC(=O)N2CCCc4ccccc42)CCC3)n1
  nt | 0.68
Cn1c(-c2ccccc2)n[nH]c1=S
  -1.4 | nt

Going on with the list.
Below each SMILES: CDC25B-CDK2 inh | TAR Tat displ
O=C(CSc1nc2ccccc2c(=O)[nH]1)NC1CCCC1
  nt | 3.2
O=c1c(-c2ccccc2)c(N2CC=C(c3ccccc3)CC2)c1=O
  nt | 2.6
CCC(=O)OCC(=O)C1(OC(=O)CC)C(C)CC2C3CCC4=CC(=O)C=CC4(C)C3(Cl)C(O)CC21C (stereo not drawn)
  nt | 1.1
O=c1c(Nc2ccc(OC(F)(F)F)cc2)c(Nc2ccc(OC(F)(F)F)cc2)c1=O
  -2.2 | nt
O=C(O)c1ccc2c(c1)N(Cc1ccc(Cl)cc1)CCS2
  -2.1 | 1.9
Cc1[nH]c2ccccc2c1C(=O)C(=O)N1C(C)CCCC1C (stereo not drawn)
  -1.5 | nt
CCCCCOC(=O)C1=C(C)Nc2nnnn2C1c1cc(Br)ccc1OC (stereo not drawn)
  0.44 | -0.14
Cc1ccc(-c2ccc(=O)[nH]n2)cc1
  -0.62 | nt
CCOC(=O)c1cc(S(=O)(=O)N2CCc3cc(OC)c(OC)cc3C2C)cn1C (stereo not drawn)
  0.73 | 1.1
COc1cc(C2c3c(oc4ccccc4c3=O)C(=O)N2c2ccccn2)ccc1OCc1ccccc1 (stereo not drawn)
  -1.1 | -0.39
CCCN1C(=O)c2[nH]nc(-c3cc(C)ccc3O)c2C1c1ccc(O)c(OCC)c1 (stereo not drawn)
  0.15 | -0.77
COc1ccc(-n2c(C)nnc2SCc2nc(-c3ccc(OC)cc3OC)no2)cc1
  -2 | 1.7
COc1ccc(/C=C/c2cc(OC)cc(=O)o2)cc1
  nt | 1.1
CCn1nc(-c2ccc(C)cc2)nc2c(=O)n(C)c(=O)nc1-2
  0.55 | 0.63
COc1cc(C(=O)Nc2ccc(Br)cc2C(=O)c2cc(OC)c(OC)c(OC)c2)cc(OC)c1OC
  -2.9 | nt
N#Cc1cc2c(=O)n3ccccc3nc2n(-c2ccccc2Cl)c1=O
  -0.22 | -0.46
NC(=O)c1c(NC(=O)c2ccc3ccccc3c2)sc2c1CCC2
  0.32 | -0.27
Cc1ccc(S(=O)(=O)c2ccc(C(=O)O)cn2)cc1C
  -0.96 | -0.91
CCCCN1CC(c2nc3ccccc3n2CCOc2ccc(Cl)cc2)CC1=O (stereo not drawn)
  -1 | 1
COCCCN/C(SCc1c(F)cccc1Cl)=C(\C#N)C(N)=O
  -1.2 | nt
COc1ccc(C(=O)Nc2cccnc2Sc2ccc(Cl)cc2)cc1
  -0.94 | nt
CCOC(=O)C1=C(C)Nc2nc(SCC(C)C)nn2C1c1ccc(C)cc1 (stereo not drawn)
  -3.5 | 0.79
COc1cccc(C2CC(=O)Nc3c2cnn3-c2nc3ccccc3s2)c1OC1CCCC1 (stereo not drawn)
  nt | 2.5
O=C(Cn1c(=O)oc2ccccc21)Nc1ncn[nH]1
  -2.2 | nt
O=S1(=O)NC(=NCCOc2ccccc2F)c2ccccc21
  0.3 | nt
COc1ccc(CNC(=O)/C=C/C(=O)O)cc1
  -1.4 | nt
O=C1c2ccccc2NC(c2cccc(F)c2)N1Cc1ccccc1 (stereo not drawn)
  -2 | 0.38
Cc1cc(NC(=O)CCSc2nc(-c3ccco3)cc(C(F)(F)F)n2)n(-c2ccccc2)n1
  -1.4 | -0.65
O=C(CNC(=O)c1ccco1)OCc1cc(=O)n2nc(C3CCCCC3)sc2n1
  nt | 0.08
CC1CCC(NC(=O)C2CCC(CNc3c(N4CCC(C)CC4)c(=O)c3=O)CC2)CC1 (stereo not drawn)
  -3.3 | nt
O=C(NCCc1csc2c1CCCC2)Nc1ccc(F)cc1
  nt | -0.17
Nc1nc2c(c(=O)[nH]1)C(c1ccc(Br)cc1)CC(=O)N2 (stereo not drawn)
  -0.02 | -1.1
Cc1ccccc1-c1noc(CCn2c(=O)[nH]c3cc4c(cc3c2=O)OCO4)n1
  nt | 1.1
CCNS(=O)(=O)c1ccc2c(c1)NC(=O)C(C)CS2 (stereo not drawn)
  nt | 1.2
Fc1ccc(C2=CC(c3ccccc3Cl)n3ncnc3N2)cc1 (stereo not drawn)
  -3.4 | 0.49
Cn1ncc2c1ncn1nc(CSc3nc4ccccc4s3)nc21
  -0.38 | 1
CCC(C)NC(=O)Cn1ncn2c(cc3ccccc32)c1=O (stereo not drawn)
  -2.4 | -0.86
O=C(CSc1nccs1)N1CCN(c2ccccc2)CC1
  -0.58 | nt
O=C(NC1CCCc2ccccc21)c1cnn(-c2ccccc2)c1-n1cccc1 (stereo not drawn)
  -0.94 | -0.49
COc1ccc(NC(=O)Nc2nnc(N3CCCCC3)s2)c(OC)c1
  -1.1 | 0
COc1ccc(-c2cc(C)no2)cc1S(=O)(=O)Nc1cc(C)ccc1C
  nt | -0.55
O=C(Nc1nnc(-c2ccc(F)cc2)s1)C(=O)c1c[nH]c2ccccc12
  -2.3 | 3
CCCC12CN3CC(CCC)(CN(C1)C3c1ccc(Cl)cc1)C2=O (stereo not drawn)
  1.9 | nt
O=C(NC1CCS(=O)(=O)C1)c1cc(-c2ccc(Cl)cc2)oc1C(F)(F)F (stereo not drawn)
  -2.4 | nt
Cc1nn2cnnc2c(C)c1CCC(=O)Nc1ccc2c(c1)OCO2
  nt | 0.33
COc1cc(OC)c(NC(=O)Nc2c[nH]c(=O)[nH]c2=O)cc1Cl
  nt | 0.95
Cc1ccc2c(c1)c1c(n2CC(O)Cn2nc(C)c(Br)c2C)C(=O)CCC1 (stereo not drawn)
  -21 | nt
COc1ccc(S(=O)(=O)n2nc(-c3ccccc3OC)cc2N)cc1
  -2.4 | 1.3
c1coc(CNc2nc3ccccc3c3nncn23)c1
  nt | 2
COc1cccc(-c2noc(-c3ccc4c(c3)OCO4)n2)c1
  -4.6 | 1.9
CCc1nn(CC(=O)NCCOC)c(=O)c2cc3sc(C)cc3n12
  -1.9 | nt
O=C(O)c1ccc2c(c1)sc1nc(-c3ccc(Cl)cc3)cn12
  0.41 | -0.42
COc1cc(CNc2cc(-n3nc(C)cc3C)ncn2)cc(OC)c1
  nt | -1.1
O=C(NC1CC1)c1ccc2c(c1)nc1n2CCCC1
  nt | 0.89
O=C(Nc1c2c(nn1-c1ccc(Cl)cc1)CS(=O)(=O)C2)c1ccc(C(=O)c2ccccc2)cc1
  nt | 1.4
